Source: PubChem
RE007 growth inh = less growth of the S. pombe RE007 Vpr strain; S. pombe RE007 Vpr strain, BacTiter-Glo ATP luminescence, 24 h; control for the full effect not named in the record; Potency, µM (highest dose often 92.2 µM), inactives show at the highest dose activity change, negative = less growth; 0.21% of 360,000 active; AID 651644; active = well fitted falling curve with a large enough effect; inconclusive = small, poorly fitted or top-dose-only effect; inactive = no such curve, though single readings can be large or run the other way;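 note: % is set by controls: 0 for no effect and ±100 for the full control effect; nearly all actives have a fitted effect of over 50% in size; the assay follows cell death caused by Vpr and the record does not say whether a fall means rescue or toxicity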
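Fission yeast RE007 carrying one integrated HIV-1 vpr copy, seeded at OD 0.01 in PMG+AL medium with 23 nL pinned compound. Grown 24 h at 30 degrees; viability read by BacTiter-Glo luminescence after 5 min.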
Marburg entry inh = inhibitors of Marburg virus binding or cell entry | Marburg virus pseudotyped entry inhibition, cell reporter; control for the full effect not named in the record; about a third of the inactives were read at about 46 µM | Potency, µM (highest dose often 37.8 µM), without a hit: top-dose activity change, negative = inhibition, most hits filed as inhibitors | 1.8% of 300,000 active; active = well fitted inhibition curve with a large enough effect; inconclusive = small, poorly fitted or top-dose-only effect, or effect the other way; inactive = flat fitted curve, though single readings scatter; tested in HEK293 cells; about a fifth of its hits are not listed in these tables; note: % is set by controls: 0 for no effect and ±100 for the full control effect; luciferase read-out
LASV entry inh = blocks Lassa virus binding to or entry into cells | AID 540256 | 1.2% of 300,000 active | Potency, µM (top dose mostly 37.9 µM), inactives show at the top dose activity change, negative = inhibition, actives largely listed as inhibitors | Lassa virus pseudotype entry inhibition, cell reporter; control for the full effect not named in the record; active means well fitted inhibition curve with a large enough effect; inconclusive means small, poorly fitted or top-dose-only effect, or effect the other way; inactive means flat fitted curve, though single readings scatter; tested in HEK293 cells; note: % is set by controls: 0 for no effect and ±100 for the full control effect; nearly all actives have a fitted effect of over 50% in size; luciferase read-out
Cruzain noTriton = inhibitors of Trypanosoma cruzi cruzain without detergent | AID 1476 | Potency, µM, inactives show max response, negative = inhibition, usual class: inhibitors | purified cruzain, Z-FR-AMC fluorescence, no detergent | 2.3% of 200,000 active | P25779; active = well fitted curve in the direction sought with a large enough effect; inconclusive = small, poorly fitted or top-dose-only effect, or another doubt; inactive = no such curve, though single readings can be large; an effect the other way counts as inactive or inconclusive;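 note: plate controls were enzyme without inhibitor for no effect and buffer without enzyme for full effect; nearly all actives have a fitted effect of over 40% in size; top concentration of the series not given in the record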
Target sequence (P25779 123-467 limits assumed): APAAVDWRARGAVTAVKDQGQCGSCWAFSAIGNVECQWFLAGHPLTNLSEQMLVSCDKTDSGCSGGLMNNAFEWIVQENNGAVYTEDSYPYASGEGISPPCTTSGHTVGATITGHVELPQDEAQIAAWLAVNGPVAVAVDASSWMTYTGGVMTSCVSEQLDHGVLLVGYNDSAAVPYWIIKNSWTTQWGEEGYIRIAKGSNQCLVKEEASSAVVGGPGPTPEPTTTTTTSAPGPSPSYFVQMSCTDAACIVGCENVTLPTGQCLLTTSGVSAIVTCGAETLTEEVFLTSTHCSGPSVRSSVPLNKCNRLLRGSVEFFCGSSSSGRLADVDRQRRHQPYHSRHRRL
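Detergent-free condition (0.00005% Triton X-100) in acetate buffer pH 5.5 with DTT. 1.5 nM enzyme and compound were pre-mixed 15 min, then 2 uM Z-FR-AMC substrate added; reaction progress from fluorescence change between first and third reads (60 s).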
Cruzain Triton = cruzain (T. cruzi) inhibition with detergent; purified cruzain, Z-FR-AMC fluorescence, 0.01% Triton; AID 1478; Potency, µM, inactives show max response, negative = inhibition, most hits filed as inhibitors; 0.43% of 200,000 active; active = well fitted curve in the direction sought with a large enough effect; inconclusive = small, poorly fitted or top-dose-only effect, or another doubt; inactive = no such curve, though single readings can be large; an effect the other way counts as inactive or inconclusive;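 note: plate controls were neutral wells for no effect and buffer without enzyme for full effect; nearly all actives have a fitted effect of over 40% in size; top concentration of the series not given in the record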
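Z-FR-AMC hydrolysis (2 uM substrate) by cruzain (1.5 nM) monitored kinetically at ex 360/em 450 nm after 15 min room-temperature compound exposure; 0.01% Triton X-100, pH 5.5, 5 mM DTT.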
NS1 inh = inhibitors of influenza NS1 protein function; S. cerevisiae slowed by influenza A NS1, growth recovery by OD600; Potency, µM (titrated, usually from 46.1 µM), for the others: top-dose activity, positive = more growth; 0.4% of 270,000 active; note: actives are rising curves; nearly all actives have a fitted effect of over 50% in size
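S. cerevisiae expressing influenza A NS1, grown in glucose, washed, then diluted 1:100 into pH 6.0 -URA galactose medium with 23 nl compound. Growth recovery read as OD600; NS1-free strain serves as control.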
2A StopGo = FMDV 2A StopGo reporter, luciferase signal. human cells with a luciferase reporter of 2A StopGo recoding; control for the full effect not named in the record. Potency, µM (titrated, usually from 57.9 µM), for the others: at the highest dose signal change, negative = less light. AID 1159524. 1.2% of 410,000 active; active = well fitted falling curve with a large enough effect; inconclusive = small, poorly fitted or top-dose-only effect; inactive = no such curve, though single readings can be large or run the other way; tested in HEK293T cells; note: % is set by controls: 0 for no effect and ±100 for the full control effect; nearly all actives have a fitted effect of over 45% in size; luciferase light after 4 h
SARS PLP yeast = blocks SARS-CoV papain-like protease in a yeast assay | S. cerevisiae expressing SARS-CoV PLpro, growth rescue; control for the full effect not named in the record | Potency, µM (highest dose often 32.9 µM), inactives show top-dose activity, positive = growth rescue | 0.19% of 330,000 active | AID 485353; note: 0% is about no effect; nearly all actives have a fitted effect of over 55% in size; growth read by luminescence after 48 h
* marks the source's active call; other numbers are inactive results; ? = inconclusive; nt = no result given; & = joins results of further samples; [ ] = remark or other dose. Unless noted, calls come from the whole dose curve; as a rule, active means well fitted rising curve with a large enough effect; inconclusive means small, poorly fitted or top-dose-only effect; inactive means no such curve, though single readings can be large or run the other way. Potency is the fitted concentration of half-maximal effect.

SMILES	RE007 growth inh	Marburg entry inh	LASV entry inh	Cruzain noTriton	Cruzain Triton	NS1 inh	2A StopGo	SARS PLP yeast
CCOC(=O)c1sc(SC)c2c1CCCC2=O	-10%	nt	nt	nt	nt	-6%	-11%	0%
COc1ccc(NC(=O)NCCCN2CCCC2=O)cc1	9%	nt	nt	-1%	2.1%	-1%	23%	-3%
Cc1ccc(C)c(/C=N/Nc2ccccn2)c1	?	1%[46.1 µM]	nt	nt	nt	nt	41%[activator]	1%
CN(/N=C/c1cc([N+](=O)[O-])ccc1O)c1ccccc1	-7%	?	15%	-1%	-5.0%	4%	29%	13%
Cc1cc(C)n(C(=O)c2ccc(C)c(F)c2F)n1	-1%	7%	11%	-1%	2.1%	1%	2%	2%
CCOC(=O)c1c(C2CCN(C(=O)OCC)CC2)nc2ccccn12	3%	nt	nt	4%	-0.1%	-107%	-29%	-6%
O=C(NC1CCCCCCC1)C1CCN(c2nc3ccccc3o2)CC1	-9%	?	?	-7%	-2.9%	-63%	14µM*	-21%
Cc1ccc(-n2nc(C(=O)Nc3ccc(C)c(F)c3)c3c4ccccc4n(C)c3c2=O)cc1	nt	0%[46.1 µM]	23%[46.1 µM]	-17%	0.1%	nt	-7%	nt
C[C@]12CCC3C(CC[C@@H]4C[C@@H](O)CC[C@]34C)C1CC[C@@H]2O (stereo not given in full)	12%	?	-24%	nt	nt	nt	-16%	nt
CNC(=S)N/N=C/c1ccco1	-2%	nt	nt	nt	nt	2%	10%	-1%
COc1ccc2oc(=O)cc(CN3CCN(Cc4ccccc4)CC3)c2c1	3%	-3%[46.1 µM]	15%[46.1 µM]	-17%	-2.1%	nt	?	nt
O=C(Nc1ccccc1N1CCCCC1)C1CCN(C(=O)c2ccc(Cl)cc2)CC1	5%	?	-28%	nt	nt	nt	?	-3%
CCc1nc(OCc2ccco2)c2sc3nc4c(cc3c2n1)COC(C)(C)C4	-5%	?	-26%	?	-12%	-10%	?	0%
CC(C)n1c(SC2CCOC2=O)nc2ccccc21 (stereo not given)	5%	14%	8%	-3%	11%	-2%	2%	21%
COc1cc(C2CC(=O)Nc3c2c(=O)n(C)c(=O)n3C)cc(OC)c1OC (stereo not given)	nt	nt	25%[46.1 µM]	-8%	0.0%	nt	-14%	nt
OC[C@@H]1[C@@H](c2ccc(Cl)cc2)C(c2ccc(F)cc2)=NN1c1ccccc1	?	nt	nt	25µM*	0.2%	nt	-2%	-80%
O=C(NNC(=O)c1cccs1)c1ccncc1	-3%	20%[46.1 µM]	-2%	nt	nt	4%	-13%	-8%
Cc1cc(S(=O)(=O)NCCc2ccccc2)ccc1-n1cnnn1	1%	11%[46.1 µM]	-17%	nt	nt	6%	53%[activator]	-1%
Cc1c(NC(=O)CN2C(=O)NC(C)(c3ccccc3Cl)C2=O)c(=O)n(-c2ccccc2)n1C (stereo not given)	0%	12%	?	6%	-0.2%	-4%	2%	6%
N#C/C(=C\c1cccc(O)c1)C(=O)N1CCCCC1	1%	5%[46.1 µM]	-4%[46.1 µM]	nt	nt	-8%	21%	1%
O=C(CCNC(=O)c1ccc(Br)cc1)OCc1ccccc1Cl	9%	21%	11%[46.1 µM]	nt	nt	nt	-13%	-18%
CC1CCCC(C)N1C(=O)COC(=O)c1ccc(S(=O)(=O)N(C)c2ccccc2)cc1 (stereo not given)	0%	9%[46.1 µM]	-1%[46.1 µM]	nt	nt	nt	3%	2%
Nn1c(COc2ccccc2)nnc1SC(F)F	12%	-2%	-29%[14.3 µM]	0%	3.1%	-10%	-12%	3%
COc1ccccc1-c1noc2ncnc(Nc3cccc(C)c3)c12	18%	nt	nt	nt	nt	-28%	-22%	1%
CCCn1ncc(CN2CCC(n3nccc3NC(=O)CCc3ccccc3)CC2)c1C	-1%	nt	nt	nt	nt	-1%	16%	19%
O=C(CN1C(=O)C2CCCCN2c2ccc(C(=O)N3CCCC3)cc21)NCc1ccccc1F (stereo not given)	nt	nt	-9%[46.1 µM]	-3%	-1.6%	nt	21%	nt
CC(=O)Nc1cccc(NC(=O)c2cccc3cccnc23)c1	-4%	-7%[46.1 µM]	-29%	nt	nt	-14%	25%	-4%
CNCCNS(=O)(=O)c1cccc2cnccc12	nt	?	9%	5%	-3.5%	-2%	-11%	nt
COc1ccc(C2C(C(=O)c3ccco3)=C(O)C(=O)N2Cc2cccnc2)cc1OC (stereo not given)	-7%	1%	17%	-9%	1.9%	-1%	nt	-1%
Cc1ccc(C)c(S(=O)(=O)c2cn(Cc3ccccc3)c3cc(F)c(F)cc3c2=O)c1	nt	?	-17%[46.1 µM]	25µM*	-4.8%	nt	18%	nt
COc1ccccc1-c1nnc(SC(C)C(=O)O)n1-c1ccccc1 (stereo not given)	0%	nt	nt	nt	nt	0%	-17%	1%
COc1cc(OC)cc(C(=O)Nc2cccc3ccccc23)c1	3%	nt	nt	nt	nt	-6%	-8%	3%
CCC(C)Sc1nc(C)nc2c1c(=O)n(C)c(=O)n2C (stereo not given)	20%	nt	nt	-1%	-7.1%	-4%	-13%	11%
COc1ccccc1NC(=O)CN(C)S(=O)(=O)c1cc(C)ccc1OC	10%	1%	-3%	3%	2.7%	-17%	-2%	-8%
O=C(Nc1ccc(S(=O)(=O)N2CCOCC2)cc1)c1ccc2ncsc2c1	-3%	nt	nt	nt	nt	9%	-23%	-2%
Cc1cc(C)c2c(=O)[nH]c(SCC(=O)c3ccc(F)c(C)c3)nc2n1	17%	1%[46.1 µM]	?	nt	nt	0%	-12%	1%
O=C(Cn1cc(S(=O)(=O)c2ccc(Cl)cc2)c(=O)c2ccccc21)Nc1ccc2c(c1)OCO2	nt	-4%[46.1 µM]	8%[46.1 µM]	-19%	-5.2%	nt	16%	nt
CCC(=O)N1CCc2cc(S(=O)(=O)NCCC(=O)Nc3cccc(C)c3C)ccc21	nt	23%[46.1 µM]	12%[46.1 µM]	-2%	0.4%	nt	-1%	nt
O=C(C1CCCN(S(=O)(=O)c2cccnc2)C1)N1CCn2c1nc1ccccc12 (stereo not given)	-6%	-5%&-5%	1%	24%	1.0%	-17%	-20%	-1%
CNC(=O)Nc1ccc(C2SCCS2)cc1	6%	18%	-3%	nt	nt	1%	23%	0%
COc1ccccc1C(=O)Nc1c(C(=O)N(C)Cc2ccccc2)sc2nc(C)c(Cl)c(C)c12	nt	?	?	5%	-4.2%	nt	-23%	nt
O=C(CN1CCN(c2ccccn2)CC1)Nc1ccc(F)cc1	-10%	-3%	-3%	0%	-1.7%	0%	-16%	-3%
Cc1ccc(C)c(NS(=O)(=O)c2c(C)nn(C)c2C)c1	0%	20%[46.1 µM]	-17%	0%	5.9%	?	26%	7%
COc1ccccc1CC(=O)NC12CC3CC(CC(C3)C1)C2	39%	20%	?	nt	nt	-26%	-23%	1%
Cc1ccc(NC(=O)c2cccc(Cl)c2)nc1	-20%	?	3%	5%	-1.5%	-8%	32%[activator]	5%
N#CC(Cc1ccc(OC(F)F)cc1)c1nc2ccccc2[nH]1 (stereo not given)	-17%	-9%	?	-2%	-5.5%	6%	38%[activator]	-6%
COc1ccc(S(=O)(=O)NCCN2CCOCC2)c(C)c1C	-8%	-2%[46.1 µM]	10%[46.1 µM]	nt	nt	0%	27%	0%
CCn1c(SCC(N)=O)nnc1C(C)C	47%	2%[46.1 µM]	-2%	nt	nt	nt	4%	1%
Cc1nc2sc3c(O)cc(=O)[nH]c3c2c(C)c1C	-2%	0%	-1%	-7%	-12%	14%	-2%	3%
CC(C)(C)NC(=O)CN1C(=O)/C(=C/c2ccccc2)SC1=S	-23%	0%[46.1 µM]	-7%[46.1 µM]	nt	nt	nt	31%[activator]	1%
CC(=O)CCC(=O)NCCc1ccccc1F	-1%	14%	26%	-3%	3.5%	-6%	28%	5%
CC(Cc1ccccc1)C(=O)N1CCN(C)CC1 (stereo not given)	-6%	20%	11%	8%&-2%	-2.4%&-2.3%	-30%	-10%	1%
CCc1ccccc1NC(=O)CCn1nc(C)c2c(C)n(-c3ccccc3)nc2c1=O	nt	nt	1%[46.1 µM]	11%	-2.1%	nt	-25%	nt
Cc1ccc(-c2nc3ccc(Cl)cn3c2Nc2ccc3c(c2)OCCO3)o1	nt	?	27%[46.1 µM]	3%	-1.5%	nt	12%	nt
O=C(NC1CCC1)C1CCC(=O)N(Cc2cccc(F)c2)C1 (stereo not given)	1%	nt	nt	nt	nt	3%	-7%	-5%
CN1CCN(Cc2c(O)ccc3occ(C(=O)c4ccccc4)c23)CC1	6%	?	-25%	-6%	0.5%	5%	8%	2%
O=C(NCC(O)c1ccccc1)c1cccc(S(=O)(=O)N2CCOCC2)c1 (stereo not given)	4%	?	14%	2%	3.0%	-3%	24%	0%
CC(C)n1nc(C(=O)Nc2ccc(-n3cnnn3)cc2)c2ccccc2c1=O	-8%	9%[46.1 µM]	-9%[46.1 µM]	nt	nt	nt	10%	6%
CC(=O)Nc1ccc(N2CCN(C(=O)c3cccs3)CC2)cc1	14%	-11%	1%	-4%	1.6%	1%	-1%	0%
COc1ccccc1NS(=O)(=O)c1ccc2oc(N)nc2c1	-6%	-11%[46.1 µM]	-5%	nt	nt	-5%	3%	8%
The listing continues:
SMILES	RE007 growth inh	Marburg entry inh	LASV entry inh	Cruzain noTriton	Cruzain Triton	NS1 inh	2A StopGo	SARS PLP yeast
O=C(O)c1ccc(NC(=O)c2ccc3c(c2)C(=O)N(CC2CCCO2)C3=O)cc1 (stereo not given)	-14%	20%[46.1 µM]	16%[46.1 µM]	nt	nt	1%	15%	0%
CN(CC(=O)Nc1ccc2c(c1)OCO2)S(=O)(=O)c1ccc(F)cc1	-4%	?	1%	nt	nt	-7%	12%	-1%
COC(=O)Cn1c(=NC(=O)C2COc3ccccc3O2)sc2cc(S(N)(=O)=O)ccc21 (stereo not given)	-18%	11%	7%	14%	-4.7%	13%	-19%	13%
C/C(=N\NC(=O)c1c(Cl)c(C)nn1C)c1cccc(NC(=O)COc2ccccc2)c1	-5%	-4%	-6%	0%	?	-6%	-20%	3%
CCCOc1ccc(C(O)CCNC(CC(=O)O)c2ccccc2)cc1 (stereo not given)	14%	-13%	8%	2%	-3.8%	0%	-11%	-8%
CCOC(=O)c1nc(Nc2ccccc2)c2ccccc2n1	0%	4%	1%	10%	-6.0%	-2%	?	-3%
